HCMV UL50-53 inh – cytomegalovirus nuclear egress complex inhibition | HTRF UL50-UL53 interaction, normalized percent inhibition | inhibition, % (concentration not given with the values) | 190,000 tested, 0.15% active | AID 1918969;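 active = both replicates at 50% or more, plus weaker picks with an unusually low signal ratio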;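 also: stock transfer was 100 nL into about 20 µL; 0% = negative control wells and 100% = wells with untagged competitor protein; inactives centre near -12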
Sa growth inh – S. aureus growth inhibition. S. aureus RN4220 growth, OD600, 20 h, 42 °C; active compounds read low. relative growth, % (test concentration not listed). 170,000 tested, 0.53% active. AID 720641;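 active = growth at 42 °C up to 50% and 20 or more points under that at 30 °C, or under 10% at both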;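 also: 300 nL library stock went into each well; scaled to the means of positive and negative controls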
GIV-Gai inh – inhibitors of GIV GBA-motif binding to rat Galpha-i3 | Galpha-i3/FITC-GIV peptide fluorescence polarization, 90 min; active compounds read low; scaled: aluminum fluoride 0%, vehicle 100% | P08753 | 210,000 tested, 0.42% active | percent of control (FP), % (test concentration not listed);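 active = replicate mean at 85% of control or lower, very high polarization wells dropped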;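 also: lower values mean more displacement of the GIV peptide from Galpha-i3; wells of about 15 µL received 100 nL stock; the first replicate is given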
Target sequence (P08753 whole entry, looked up): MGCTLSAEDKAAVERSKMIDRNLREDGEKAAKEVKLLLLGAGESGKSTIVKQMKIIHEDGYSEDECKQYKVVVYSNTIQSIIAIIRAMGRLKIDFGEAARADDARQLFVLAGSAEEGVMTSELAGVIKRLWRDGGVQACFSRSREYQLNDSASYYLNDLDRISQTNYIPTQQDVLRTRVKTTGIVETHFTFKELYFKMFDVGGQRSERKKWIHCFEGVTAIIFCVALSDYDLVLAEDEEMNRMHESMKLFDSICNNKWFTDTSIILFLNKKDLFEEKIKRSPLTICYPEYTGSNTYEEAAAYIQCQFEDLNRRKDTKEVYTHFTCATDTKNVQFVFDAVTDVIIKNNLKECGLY
Sa growth inh second temp – recorded beside Sa growth inh, whose call it bears; relative growth, %; measured here: growth at 30 °C;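 optical density after 20 h as mean of two plates; 100% = untreated growth and lower means inhibition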
* = called active by the depositor; / = no result given; & = joins results of further samples; ! = repeats disagree. Not all compounds are listed; rates above refer to the full screens.

Values run as follows: HCMV UL50-53 inh | Sa growth inh | Sa growth inh second temp | GIV-Gai inh
- Cc1ccc(C)c(CN2C(=O)c3ccccc3Sc3ccc(C(=O)N4CCC5(CC4)OCCO5)cc32)c1
  / | 76 | 81 | 92
- NC(=NCCC[C@H](N)C(=O)O)N[N+](=O)[O-]
  -9 | / | / | 98
- COC(=O)COc1ccc(/C=C2\C(=O)NC(=S)N(c3ccc(C)cc3)C2=O)cc1OC
  -10 | / | / | 111
- CSc1ccc(CN2CCN(C(=O)COc3cccc(C)c3)CC2)cc1
  12 | 112 | 103 | 101
- OC(CN(Cc1ccccc1)Cc1ccccc1)c1ccc2cc[nH]c2c1 (stereo unspecified)
  -29 | / | / | 101
- CCCC(=O)OCC[N+](C)(C)C
  -6 | 83 | 83 | 105
- CN(C)C(=O)Oc1cccc(-c2c(C#N)c(N)n3c(nc4ccccc43)c2C#N)c1
  -24 | / | / | 116
- CCSc1nnc(NC(=O)c2cccn(Cc3ccc(Cl)cc3)c2=O)s1
  / | 111 | 74 | 101
- O=P1(c2ccccc2)C=CCC1 (stereo unspecified)
  3 | 119 | 105 | /
- CCc1ccc(-n2nc(C)c3c2NC(=O)CSC3c2ccccc2C)cc1 (stereo unspecified)
  3 | 83 | 63 | 100

Values run as follows: HCMV UL50-53 inh | Sa growth inh | Sa growth inh second temp | GIV-Gai inh
- Cc1ccc(P(=O)(N2CCOCC2)N2CCOCC2)o1
  -11 | 111 | 88 | /
- COc1ccc(-n2c(C)nc3cc(C(=O)N4CCC5(CC4)OCCO5)ccc32)cc1
  8 | 97 | 88 | 106
- Cc1cc(C)cc(NC(=O)CN2C(=O)CN=C(c3ccccc3)c3cc(Cl)ccc32)c1
  / | 109 | 79 | 103
- NCCc1ccccc1F
  -7 | 98 | 98 | /
- CCc1ccc(CN2CCN(CC)CC2)cc1
  7 | 98 | 110 | 106
- CCCn1cc(C(=O)O)c(C)n1
  -14 | 90 | 88 | 102
- c1cc2c(cc1CN1CCNCC1)OCO2
  4 | 72 | 119 | 106
- CN(C)CCCNC(=O)c1cc2cccnc2n(Cc2ccc(F)cc2)c1=O
  -40 | / | / | 105
- CC1(C)C2CCC13CSN1OC13C2 (stereo unspecified)
  -18 | 98 | 95 | 103
- Cc1cc(NC(=O)CCc2nc(C3=CCN(C)CC3)no2)no1
  -28 | 91 | 82 | 105

Values run as follows: HCMV UL50-53 inh | Sa growth inh | Sa growth inh second temp | GIV-Gai inh
- O=S(=O)(c1ccc(Cl)cc1)N1CCCCC1c1cccnc1 (stereo unspecified)
  / | 81 | 73 | 102
- Cc1cccnc1-n1c(C)nc2ccccc2c1=O
  -8 | 107 | 69 | 100
- CCC(=O)Nc1cc(C(=O)N2CCC3(CC2)OCCO3)ccc1S(=O)(=O)c1ccc(C)cc1
  / | 111 | 77 | 101
- Cc1cc(/C=C2\C(=O)NC(=O)N(c3ccc(F)cc3)C2=O)c(C)n1-c1cccc(C(=O)O)c1
  -29 | / | / | 103
- Cc1ccc(CN2CCCN(CC(N)=O)S2(=O)=O)cc1
  -13 | 107 | 96 | 98
- Cc1cc(C)cc(N2C(=O)/C(=C/c3ccc(OC(C)C(=O)O)cc3)C(=O)NC2=S)c1 (stereo unspecified)
  -2 | / | / | 91
- NCCc1ccccn1
  2&2&-24 | 95&103 | 93&95 | /
- c1ccc2sc(N3CCNCC3)nc2c1
  -20 | 90 | 93 | 103
- Cc1cc(-n2c(=S)[nH]c3ccccc3c2=O)ccc1Br
  -25 | 119 | 87 | 102
- Ic1ccccc1CNC1C2CCN(CC2)C1C(c1ccccc1)c1ccccc1 (stereo unspecified)
  -1 | / | / | 98

Values run as follows: HCMV UL50-53 inh | Sa growth inh | Sa growth inh second temp | GIV-Gai inh
- CCOc1ccc(NC(=O)C23CC4CC(CC(C4)C2)C3)cc1
  -12 | 100 | 86 | /
- C=CC1CN2CCC1CC2[C@H](O)c1cnc2ccccc2c1 (stereo partly specified)
  3 | 112 | 92 | /
- Cc1ccc(Cn2cccc(C(=O)Nc3ccc(C)c(Cl)c3)c2=O)cc1
  / | 137 | 91 | 100
- [N-]=[N+]=CC(=O)OCC(N)C(=O)O (stereo unspecified)
  -46 | 87 | 83 | /
- Cc1cccc(N2CCN(CC#N)CC2)c1
  0 | 105 | 104 | 102
- Oc1ccc2c3c1O[C@H]1[C@@H](O)CC[C@@]4(O)[C@@H](C2)N(CC2CCC2)CC[C@]314
  -6&-11 | 88 | 90 | 104
- C=CCN1C(=O)CC(=O)NC1=S
  2 | 104 | 106 | 107
- CC(C(=O)NCC1CCCCC1)N1CC=C(c2ccccc2)CC1 (stereo unspecified)
  -18 | 95 | 91 | /
- CCCN(CCC)C1CCc2cccc(O)c2C1 (stereo unspecified)
  -5&30 | / | / | 105
- CC1(C)C(C(=O)NN2C(=O)c3ccccc3C2=O)C1(C)C
  -12 | 103 | 110 | /

Values run as follows: HCMV UL50-53 inh | Sa growth inh | Sa growth inh second temp | GIV-Gai inh
- C[C@H](N)[C@H](O)c1ccc(O)c(O)c1
  -4&-28 | 101 | 96 | /
- CC(C)COC(C(=O)O)(c1ccccc1)c1ccccc1
  -15 | 109 | 104 | 97
- CC(=O)N1CCC2(CC1)c1cccn1-c1ccccc1CN2C(=O)Nc1ccc(C)cc1C
  -9&-12 | 106 | 94 | 112&114
- CSc1nc2ccccc2c(=O)n1-c1ccccc1C
  -20 | 111 | 91 | 105
- Cc1ccc(NC2=NC(C)(C)CS2)cc1Cl
  -13 | 82 | 85 | /
- S=C=NCC1CCCO1 (stereo unspecified)
  -14 | 115 | 90 | /
- Cc1ccc(NP(C(C)C)C(C)C)nc1
  -3 | 113 | 92 | 103
- COc1cc(C=C2C(=O)N(C)C(=O)N(C)C2=O)ccc1Oc1ccc([N+](=O)[O-])cc1C#N
  -25 | / | / | 94
- CSc1ccc(CN2CCN(C(=O)COc3ccc(C)cc3)CC2)cc1
  19 | 108 | 103 | 99
- O=C1CC(=O)N(c2cccc(F)c2)C(=S)N1
  5 | 104 | 99 | 107

Values run as follows: HCMV UL50-53 inh | Sa growth inh | Sa growth inh second temp | GIV-Gai inh
- CCn1c(C(=O)O)c(CC(=O)N2CCN(Cc3ccccc3)CC2)c2ccccc21
  -18 | / | / | 100
- CC1OP(=S)(C(Nc2ccccc2)c2ccccc2)OC1C (stereo unspecified)
  / | 82 | 94 | 103
- O=C1CC(C(=O)c2ccccc2)CO1 (stereo unspecified)
  -6 | 108 | 83 | 106
- c1ccc2c(CNC3CCCCC3)c[nH]c2c1
  -4 | 99 | 66 | 104
- O=C(O)C(Cc1cnc[nH]1)NS(=O)(=O)c1cccs1 (stereo unspecified)
  -3 | 90 | 98 | /
- S=C(NC1CCCCC1)N1CCC(c2cnc[nH]2)CC1
  -8&-7 | / | / | 100
- Cn1c(=O)cc(SCC(=O)N2CCC3(CC2)OCCO3)c2ccccc21
  -21 | 79 | 84 | 107
- COc1ccccc1-c1nn2c(=O)cc(CN3CCN(C(=O)COc4ccccc4Cl)CC3)nc2s1
  / | 100 | 86 | 107
- CC(=O)c1c(O)c(C)c(O)c(Cc2c(O)c3c(c(C(=O)/C=C/c4ccccc4)c2O)OC(C)(C)C=C3)c1O
  0&2 | / | / | 100
- CCOc1cc2c(cc1OCC)-n1cccc1C(c1coc3ccccc3c1=O)NC2 (stereo unspecified)
  2 | 89 | 86 | 101

Values run as follows: HCMV UL50-53 inh | Sa growth inh | Sa growth inh second temp | GIV-Gai inh
- C1=CCC2CC=CC(C1)N2 (stereo unspecified)
  -25 | 81 | 75 | 99
- C=CC1CN2CCC1CC2C(OC(=O)OCC)c1ccnc2ccc(OC)cc12 (stereo unspecified)
  0 | 105 | 96 | 102
- CN1C(=O)C(=C/C=C/c2ccccc2)C(=O)N(C)C1=O
  9 | 100 | 92 | 81*
- Cc1cc2c(n1-c1ccc(C(=O)N3CCC4(CC3)OCCO4)cc1)CCC(C)C2 (stereo unspecified)
  / | 99 | 77 | 106
- Cc1cccc(OCC(=O)N2CCN(Cc3cc(=O)n4nc(-c5ccccc5Cl)sc4n3)CC2)c1
  / | 105 | 93 | 110
- Cc1cccc(CC(=O)N2CCC3(CC2)OCCO3)c1
  -27 | 100 | 103 | 93
- CCCCn1c(=O)c(C(=O)Nc2nccs2)c(O)c2ccccc21
  -6 | 105 | 81 | /
- CN(CCc1ccccc1)Cc1c(F)cccc1F
  -2 | 114 | 104 | 107
- Cc1c(C(c2ccc(F)cc2)c2c(O)c3ccccc3oc2=O)c(=O)n(-c2ccccc2)n1C (stereo unspecified)
  13 | 105 | 89 | 104
- O=c1ccc2[nH]cc(C3=CCNCC3)c2[nH]1
  5&15 | / | / | 107

Values run as follows: HCMV UL50-53 inh | Sa growth inh | Sa growth inh second temp | GIV-Gai inh
- CCCC1COC(Cn2cncn2)(c2ccc(Cl)cc2Cl)O1 (stereo unspecified)
  -11 | 5.4* | 5.5* | 106
- CCOc1ccc(C(Nc2ccccc2)P2(=S)OCCCO2)cc1 (stereo unspecified)
  / | 97 | 83 | 98
- C#C[C@]1(O)CC[C@H]2[C@@H]3CCC4=CC(=O)CCC4=C3C=C[C@@]21CC
  -78 | 89 | 85 | 103
- COCc1cc(OC(=O)N(C)C)nc2c1c(C)nn2C
  5 | 107 | 96 | 103
- O=C(Cn1cc(C(=O)c2ccccc2)c2ccccc21)NCc1ccco1
  1 | 87 | 71 | 102
- CN1CCSC1=Nc1cccc(C(F)(F)F)c1
  3 | 103 | 92 | /
- CC(=O)OC1C2CCC1C(N1CCCCC1)CC2 (stereo unspecified)
  4 | 70 | 112 | /
- CNCCc1ccncc1
  -9 | 101 | 87 | 103
- Cc1cccc(C2CC(=O)Oc3c2c(=O)oc2ccccc32)c1 (stereo unspecified)
  34 | 111 | 108 | 104
- Cc1nc(S(=O)(=O)N2CCCCC2c2cccnc2)cn1C (stereo unspecified)
  -4 | 81 | 98 | 85*

Values run as follows: HCMV UL50-53 inh | Sa growth inh | Sa growth inh second temp | GIV-Gai inh
- CCc1ccc(NC(=O)c2cccn(Cc3cccc([N+](=O)[O-])c3)c2=O)cc1
  / | 133 | 97 | 97
- COc1ccc(C2(O)CC3CCC(C2)N3)cc1 (stereo unspecified)
  -13 | 111 | 90 | 100
- C=CCN1C(=O)/C(=C/c2cc(C)n(-c3ccccn3)c2C)C(=O)NC1=S
  / | 90 | 90 | 102
- COc1ccc(-n2c(/C=C\c3ccccc3F)nc3ccccc3c2=O)c(OC)c1
  / | 115 | 87 | 103
- Cc1ccc(NC(=O)N2Cc3ccccc3-n3cccc3C2c2ccc(Cl)cc2)cc1 (stereo unspecified)
  -11 | / | / | 110
- COc1ccc(C2N3CCCN23)c(OC)c1 (stereo unspecified)
  2 | / | / | 99
- N#Cc1ccccc1NC(=O)c1cccn(Cc2ccccc2)c1=O
  / | 148 | 73 | 102
- O=C1C=C2C3CCN(CC3)C2CC1 (stereo unspecified)
  -32 | 109 | 87 | 99
- CSc1ncc(C(=O)Nc2ccc(Cl)cc2C(=O)c2ccccc2)c(C)n1
  / | 110 | 92 | 103
- O=C1CN(C(=O)COC(=O)Cc2ccccc2)c2ccccc2N1
  -8 | 114 | 85 | /

Values run as follows: HCMV UL50-53 inh | Sa growth inh | Sa growth inh second temp | GIV-Gai inh
- c1ccc2c3c([nH]c2c1)CNCC3
  -52 | 97 | 88 | /
- CN(C)/C=C(\C=[N+](C)C)c1cc(/C(C=[N+](C)C)=C\N(C)C)[nH]n1
  -2 | 102 | 93 | /
- O=C(Nc1ccccc1)Nc1nc(CC(=O)N2CCN(Cc3ccccc3)CC2)cs1
  5 | / | / | 116
- CC(c1ccccc1F)n1cc(C(=O)NC2CCCC2)nn1 (stereo unspecified)
  -1 | 90 | 90 | 99
- COc1ccc(Br)cc1C1SCC(=O)Nc2c1c(C)nn2-c1ccccc1C (stereo unspecified)
  6 | 112 | 73 | 100
- CCOC(=O)C1CC2CCCN2C12C(=O)N(Cc1ccccc1)c1ccccc12 (stereo unspecified)
  -11 | 98 | 96 | 101
- CC(C)NC(=O)N1Cc2ccccc2-n2cccc2C1C (stereo unspecified)
  -23 | / | / | 107
- NC(=O)CN1C2CCC1CC(NC(=O)C1CC1)C2 (stereo unspecified)
  -8 | 106 | 80 | 102
- CC1CCCN(C(c2ccc(F)cc2)c2c(O)[nH]c(=O)[nH]c2=O)C1 (stereo unspecified)
  / | 127 | 93 | 95
- Cc1nnc(NC(=O)c2cccn(Cc3cccc(F)c3)c2=O)s1
  / | 137 | 88 | 101

Values run as follows: HCMV UL50-53 inh | Sa growth inh | Sa growth inh second temp | GIV-Gai inh
- CC(C)c1nn2c(=O)cc(COC(=O)Cc3ccccc3)nc2s1
  / | 89 | 90 | 99
- COc1cc2c(c(OC)c1OC)-c1ccc(O)c(=O)cc1C(NC(C)=O)CC2 (stereo unspecified)
  -90 | 100 | 88 | 104
- O=C1NC(=S)N(c2ccc(Br)cc2)C(=O)/C1=C\c1ccc(-c2ccccc2C(=O)O)o1
  -2 | / | / | 112
- N#CC(C#N)=C(C#N)c1ccc(Nc2ccccc2)cc1
  -5 | 85 | 69 | /
- CCN1CCN(C(=O)Cc2c(C)nc3nc(-c4ccc(C(C)(C)C)cc4)nn3c2C)CC1
  -22 | / | / | 104
- O=C(NCC1CCCO1)c1cc2cccnc2n(Cc2ccccc2)c1=O (stereo unspecified)
  -2 | / | / | 111
- CC(NC1=NCCS1)c1ccccc1 (stereo unspecified)
  -6 | 119 | 95 | /
- COc1ccc(C(CN(C)C)C2(O)CCCCC2)cc1 (stereo unspecified)
  -35&-36&-77&-22 | 0.0*! | -0.3*! | 94&108

Screening results: PubChem BioAssay, ICCB-Longwood Screening Facility, Harvard Medical School
